Screening data as filed in PubChem BioAssay.
MbtI inh: blocks the Mycobacterium tuberculosis siderophore enzyme MbtI | inhibition, %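 (about 17 µg/mL by stock and volumes)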 | P9WFX0 | purified MbtI enzyme, fluorescence intensity read-out | 100,000 tested, 0.89% active;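 active means above 50% in both replicates, above 80% if mildly self-fluorescent; inactive means the rest, strongly fluorescent compounds included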;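 further: 0% = mean of negative and 100% = mean of positive controls; one replicate is shown; some compounds called inactive have numbers as strong as hits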
Target sequence (P9WFX0 whole entry, looked up): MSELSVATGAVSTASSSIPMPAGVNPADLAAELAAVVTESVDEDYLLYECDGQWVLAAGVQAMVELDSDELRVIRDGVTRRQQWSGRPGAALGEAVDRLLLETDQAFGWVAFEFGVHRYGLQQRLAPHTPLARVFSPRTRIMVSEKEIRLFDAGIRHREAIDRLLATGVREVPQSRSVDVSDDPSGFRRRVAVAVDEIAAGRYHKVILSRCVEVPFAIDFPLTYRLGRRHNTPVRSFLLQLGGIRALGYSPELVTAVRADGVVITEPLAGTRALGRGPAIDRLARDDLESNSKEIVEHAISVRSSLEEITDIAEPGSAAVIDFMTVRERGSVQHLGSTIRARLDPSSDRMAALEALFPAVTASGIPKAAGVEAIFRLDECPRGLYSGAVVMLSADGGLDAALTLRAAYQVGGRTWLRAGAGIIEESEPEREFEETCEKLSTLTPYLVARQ
Active calls of the source: *. A portion of the library; count on the stated rates, not on these rows.

The first ten entries, ahead of the listing:
SMILES	MbtI inh
Nc1cc(Nc2ccccc2)ccn1	-9
O=C(Cn1c(=O)n(CC(=O)NC2CCCCC2)c2ccccc21)NC1CCCCC1	-7
CCC(=O)Oc1c(Sc2ccc(C)cc2)c(C)nn1C(C)(C)C	9
CCSC1(SCC)N=C(N)C2(C#N)C(c3ccccc3)NC(C)=CC12C#N (stereo not given)	-11
Cc1cc(=O)n2[nH]c(-c3ccccc3)cc2n1	-13
COc1ccc(C2C(C(=O)NCCCN3CCC(C)CC3)c3ccccc3C(=O)N2C)cc1 (stereo not given)	-6
O=C(CSC1=NC(=O)C(c2ccccc2)C(=O)N1)c1ccccc1 (stereo not given)	-4
Cc1cccc(NC(=O)C2(N3CCC3=O)CCCCC2)c1	-1
COC(=O)c1c(C)nc2n(CCN3CCCCC3)c3ccccc3n12	-4
CCOC(=O)c1nc(-c2ccccc2)oc1N1CCOCC1	77

All compounds of this part, from the first entry:
SMILES	MbtI inh
Nc1cc(Nc2ccccc2)ccn1	-9
O=C(Cn1c(=O)n(CC(=O)NC2CCCCC2)c2ccccc21)NC1CCCCC1	-7
CCC(=O)Oc1c(Sc2ccc(C)cc2)c(C)nn1C(C)(C)C	9
CCSC1(SCC)N=C(N)C2(C#N)C(c3ccccc3)NC(C)=CC12C#N (stereo not given)	-11
Cc1cc(=O)n2[nH]c(-c3ccccc3)cc2n1	-13
COc1ccc(C2C(C(=O)NCCCN3CCC(C)CC3)c3ccccc3C(=O)N2C)cc1 (stereo not given)	-6
O=C(CSC1=NC(=O)C(c2ccccc2)C(=O)N1)c1ccccc1 (stereo not given)	-4
Cc1cccc(NC(=O)C2(N3CCC3=O)CCCCC2)c1	-1
COC(=O)c1c(C)nc2n(CCN3CCCCC3)c3ccccc3n12	-4
CCOC(=O)c1nc(-c2ccccc2)oc1N1CCOCC1	77
Cc1ccc(CC(=O)NCCCn2ccnc2)cc1	-5
COC(=O)Cn1ncc2c3ccccc3n(C)c2c1=O	-172
COc1ccc(-c2cc3c(nn2)Nc2ccccc2S3)cc1	-3
O=C(NCCC1=CCCCC1)C1CCN(c2nc3ccccc3o2)CC1	-11
OCn1cnc2ccccc21	-7
O=c1[nH]cnc2c1nnn2Cc1ccccc1	-7
Cc1cc(C)nc(SCCN2CCCC2)n1	-2
CC1CCN(C(=O)CCNS(=O)(=O)c2cccc3nsnc23)CC1	-3
N#Cc1c(-n2ncnc2-c2ccc3c(c2)OCO3)sc2c1CCCCC2	-9
COc1cc(C)c(S(=O)(=O)N2CCN=C2c2ccccc2)cc1C	-11
COc1ccc(C2C(C(=O)N3CCCCC3)c3ccccc3C(=O)N2Cc2ccc(F)cc2)cc1 (stereo not given)	-15
CSc1nc2c(c(=O)n1C)SC(C)C2 (stereo not given)	-2
COc1ccccc1Nc1c2c(nc3ccc(NC(=O)/C=C/c4cccs4)cc13)CCCC2	14
CCOC(=O)N1CCN(C2CCCc3c2[nH]c2ccc(C)cc32)CC1 (stereo not given)	-5
CC(NC(=O)Cc1nn[nH]n1)c1ccccc1 (stereo not given)	-1
SMILES	MbtI inh
Cc1ccc(Cn2c(=O)c3ccccc3n3nncc23)cc1	-7
COc1ccc(C2C(C(=O)c3ccccc3)C(=O)CC(C)(O)C2C(=O)c2ccccc2)cc1 (stereo not given)	-6
COc1ccc2nc3sc(C(=O)O)cc3cc2c1	4
COc1ccccc1C/C(N)=N/O	-9
CCCc1ccc(OCC(=O)NC2CCCC2)cc1	-16
CCC(Sc1nc2cc(OC)c(OC)cc2c(=O)n1Cc1ccco1)C(=O)Nc1ccccc1OC (stereo not given)	-10
O=C(Oc1cccc2cccnc12)c1cccc(F)c1	-3
COC(=O)C1=C(C(=O)c2ccccc2)C(c2ccc(OC)c(OC)c2)Nc2nnnn21 (stereo not given)	-9
COc1ccccc1Nc1c2c(nc3ccc(NC(=O)CCN4CCOCC4)cc13)CCCC2	11
CCN(CC)c1cc(Oc2ccccc2)ncn1	-2
O=C1OC(c2ccccc2)C(O)(c2ccccc2)C12CCCC2 (stereo not given)	-15
CCN1CCN(Cc2c(C)[nH]c3ccc(C)cc3c2=O)CC1	2
Cc1nc(C(C)(C)O)n(-c2ccccc2)n1	-12
CC(=O)OC(COc1ccccc1)Cn1nc(C)cc1C (stereo not given)	-16
CC(=O)Nc1ccc(S(=O)(=O)Nc2cccc3c(=O)[nH][nH]c(=O)c23)cc1	-11
CCc1cc2c(cc3c(=O)[nH]nc(CC)n32)s1	-14
CC(C)(C#N)C(C)(C)c1nn[nH]n1	-21
CC(=O)NC1(c2nnnn2CCOC(=O)Nc2ccc(Cl)cc2)CCCC1	-10
Cc1ccc2c(c1)C(SCC(=O)O)CC1(CCCC1)O2 (stereo not given)	2
O=C(Nc1ccccc1-c1nc2ccccc2[nH]1)c1ccccc1F	-5
Cc1ccccc1C(=O)N1CCC(C(=O)Nc2ccc(F)c(Cl)c2)CC1	-17
Cc1ccc2cnn(CC(=O)NCc3ccccc3)c2c1	-4
CC(=O)Nc1ccc(S(=O)(=O)N2CCCOC2)cc1	-5
COc1cc(OC)cc(C(=O)Nn2cc(C(=O)N3CCN(C)CC3)c3ccccc3c2=O)c1	2
CCc1cc(-c2[nH]ncc2-c2cscn2)c(O)cc1O	-3
SMILES	MbtI inh
C=CCSc1nnc2c(n1)OC=Nc1ccccc1-2	-4
COc1ccc(CC(=O)N2CCCC(C)C2)cc1 (stereo not given)	6
O=S(=O)(c1ccc2c(c1)C(=NO)c1cc(S(=O)(=O)N3CCCC3)ccc1-2)N1CCCC1	82
COc1ccc(NC(=O)CSc2nnc3[nH]c(=O)cc(N)n23)cc1	-6
CC(NC(=O)CCOc1ccccc1)c1ccccc1 (stereo not given)	-7
Cc1ccc(CNC(=O)CCC(=O)Nc2ccc3nc(N4CCCCC4)cc(C)c3c2)cc1	-52
Cc1ccc(S(=O)(=O)N2C(=O)CCC2C(=O)NCCOc2ccccc2C)cc1 (stereo not given)	-7
CC(C)OC(=O)N(O)c1cccc(Cl)c1	-12
O=C(O)c1cccc(-c2nn[nH]n2)c1	-13
CC1CCCCN1Cc1ccc(-c2nn[nH]n2)cc1 (stereo not given)	-11
CC(=O)N(Cc1ccco1)C1(C(=O)NC2CCCCC2)CCCCC1	-5
CC(C)(C)c1cc(CCC(=O)N2CCNCC2)c(C(C)(C)C)cc1O	-3
CCCN1C(=O)C(NC(C)=O)c2cc(F)ccc21 (stereo not given)	-16
COc1ccccc1NC(=O)c1ccccc1	0
CC(NC(=O)CSc1nnc(-c2ccco2)n1-c1ccccc1)c1ccccc1 (stereo not given)	-10
Cc1ccc(Oc2ccc(S(=O)(=O)N3CCOCC3)cc2C(N)=O)c(-n2nc3ccccc3n2)c1	-17
COc1cc(CNc2ccc(F)cc2C)cc(OC)c1	4
Cc1sc2nc(SCC(=O)N3CCCC3)[nH]c(=O)c2c1C	0
O=C(O)CCC(=O)Nc1ccn(Cc2ccc(Cl)cc2)n1	-8
CCOC(=O)C(C#N)C(Cc1ccccc1)c1ccco1 (stereo not given)	-7
CN(C)S(=O)(=O)C1CCS(=O)(=O)C1 (stereo not given)	0
CN(C)c1ccc(-c2ccncc2)cc1	-245
CC(C)Cn1c(N(C)C)nc2c1c(=O)[nH]c(=O)n2C	-6
Nc1cc(=O)[nH]n1C1CCCCC1	-2
CC(C)CN1C(=O)c2ccc(C(=O)Nc3ccc(OCC(=O)O)cc3)cc2C1=O	-1

Ordered by molar mass (high to low): some entries from above
SMILES	MbtI inh
COc1cc(OC)cc(C(=O)Nn2cc(C(=O)N3CCN(C)CC3)c3ccccc3c2=O)c1	2
CCC(=O)Oc1c(Sc2ccc(C)cc2)c(C)nn1C(C)(C)C	9
CCOC(=O)C(C#N)C(Cc1ccccc1)c1ccco1 (stereo not given)	-7
OCn1cnc2ccccc21	-7

Carrying on:
SMILES	MbtI inh
CCOc1ccc(C/C(O)=C2\C(=N)CC(C)(C)CC2=O)cc1OCC	-10
Nc1ccc(-c2cc(N)n[nH]2)cc1	-28
COc1ccc(C(C)NC(=O)CCc2ccccc2)cc1 (stereo not given)	0
OC(Cn1cccn1)c1ccccc1 (stereo not given)	-6
CCC(C)(C(=O)NC1CCCCC1)N(C)C(=O)Cc1cccs1 (stereo not given)	-7
NS(=O)(=O)c1cccc2cc(C(=O)O)c(O)cc12	-10
CC1CCCN(C(=O)Cc2cn(Cc3cccc(Cl)c3)c3ccccc23)C1 (stereo not given)	6
CC(C)(C)OC(=O)COc1ccc2oc(=O)sc2c1	-2
O=C1c2ccccc2C(=O)N1CC(=O)N1CCc2ccccc21	-5
Cc1nn2c(nc1=O)SCC2(O)c1ccccc1 (stereo not given)	23
CCOC(=O)/C(N=O)=C(/O)c1c[nH]c2ccccc12	-8
CN(C)CCNC(=O)c1c[nH]c2ccccc12	-4
C=CCN(c1ccccc1)C(C(=O)Nc1ccc2c(c1)OCCO2)c1ccccc1 (stereo not given)	-6
CCN(CC)CCn1c(=N)n(CCO)c2ccccc21	2
CCC(Sc1nnnn1-c1ccccc1)C(=O)Nc1ccc(S(N)(=O)=O)cc1 (stereo not given)	4
COC(=O)CSc1cc(Cl)nc2ccc(C)cc12	-1
CCc1nc2ccccc2n1CC(O)COc1ccc(Cl)cc1 (stereo not given)	-13
Oc1ccccc1-c1nnc(COc2ccccc2)o1	-12
CC(=O)N1CC(c2ccccc2)CC1=O (stereo not given)	-20
COc1cccc2c1NC(C)(C)C=C2C	-41
O=C(O)CCC(=O)N(Cc1ccccc1)Cc1ccccc1	-8
Nc1nnc(CCS(=O)(=O)c2ccc(Cl)cc2)s1	-4
c1ccc(-c2csc(NCc3ccco3)n2)cc1	-2
Cc1cc(CN(C)C)c(O)c(C2(C)CCCCC2)c1	-13
COc1ccc(C2(C(=O)NC(C)(C)CO)CCCC2)cc1OC	-12
SMILES	MbtI inh
CCOC(=O)c1oc2ccc3c(c2c1C)C(=O)CC1(CCN(C(=O)OCC)CC1)O3	5
O=C(Nc1nnc(COc2ccc(Cl)cc2)s1)C1CCCCC1	6
O=c1oc2ccccc2c2c1ncn2CCN1CCOCC1	-9
Cc1cc(C)n(-c2nc3cc(C(=O)c4ccccc4)ccc3nc2Cl)n1	11
CC(=O)N(CCC(c1ccc(C)cc1)c1ccco1)Cc1ccccc1 (stereo not given)	14
CC(C(=O)O)n1c2ccccc2c2cn[nH]c(=O)c21 (stereo not given)	-25
CC(=O)N=c1sccn1CC(O)c1ccccc1 (stereo not given)	-1
CCOC(=O)c1sc(NC(=O)CN2C(=O)c3ccccc3C2=O)c(C(=O)OCC)c1C	-5
CC1CCN(CCCNC(=O)c2coc3nc4ccccc4nc23)CC1	99
OCCCNc1nc(-c2cccs2)nc2ccccc12	-74
COC(=O)c1cn(NC(=O)C2CCCCC2)c(=O)c2ccccc12	-7
CN(c1ccccc1)S(C)(=O)=O	1
CCC(C)NC(=O)C1CCN(S(C)(=O)=O)CC1 (stereo not given)	-12
Cc1cc(N(C)C)c(C#N)c(N2CCCCC2)n1	-2
CC(C)OC(=O)Nc1ccccc1	-3
NCCNC(=O)c1ccc(/C=N/O)nc1	10
CC(C)COc1ccc(C(=O)OCCN2CCOCC2)cc1	-19
CC1CCC(NC(=O)C2c3cccn3CC(=O)N2c2cccc(F)c2)CC1 (stereo not given)	-11
O=C(OCCN1CCCCC1)c1ccccc1Br	-13
CC1(C)OC(=O)N(CCCN2CCOCC2)C1(C)O (stereo not given)	-2
COc1cccc(-c2noc(N)c2C#N)c1	3
O=C1NCCCC1C(=O)NCC(O)CO (stereo not given)	-10
COc1cc(C(=O)Nc2nsc(-c3ccccc3)n2)cc(OC)c1OC	-8
Cn1c(=O)c(-c2ccccc2N)nc2ccccc21	-1
Cc1ccccc1CS(=O)(=O)CC1Nc2cc(C(=O)O)ccc2NC1=O (stereo not given)	24
SMILES	MbtI inh
CC1CC(=O)C2=C(O1)c1c(ccc3ncccc13)NC2c1ccc(Cl)cc1Cl (stereo not given)	-35
COc1ccc2c(c1)CCC1Sc3ccccc3N=C21 (stereo not given)	15
c1ccc(-c2cn3c(n2)CCC3)cc1	-5
COC(=O)Cn1ncc2c3ccccc3n(Cc3ccccc3)c2c1=O	2
O=C(Cc1ccccn1)NCCO	-2
c1ccc2c(c1)nc1n2CCN1CCN1CCOCC1	-6
COC(=O)c1cc2c(cc1NC(=O)CSCCc1ccccn1)OCO2	-8
CCC1(C)OC(=O)N2CCc3cc(OC)c(OC)cc3C21C (stereo not given)	1
c1cncc(-c2nc3ccccc3o2)c1	12
O=C(c1ccccn1)N(Cc1ccco1)C1(C(=O)NC2CCCC2)CCCCC1	-6
O=c1[nH]ncc(N2CCCC2)c1Cl	-1
O=C(O)CSc1ccc(-c2ccccc2)nn1	0
CCOC(=O)N1CCC(NCC2C(Oc3ccc(Cl)cc3)C(=O)N2c2ccccc2C)CC1 (stereo not given)	-3
CCCOc1ccc(CSC(=N)N)cc1Br	-5
CCc1ncc(C(O)c2ccccc2)n1C (stereo not given)	-10
CCOC(=O)C12CNC(=O)C(C(=O)OCC)(CNC1=O)C2	-10
Cc1c(Cl)cccc1-n1ncnc1-c1ccc(F)cc1	-8
O=c1c2ccccc2c2ccccc2c(=O)n1CC1CCCO1 (stereo not given)	0
Cn1c(=O)n(C)c2cc(C(=O)O)ccc21	-9
Cc1nc(C2CC(=O)OC23CCCCC3)cs1 (stereo not given)	16
CCCCc1ccc(C(=O)Nc2cc3cccc(OC)c3oc2=O)cc1	0
CN(C(=O)c1ccc(-n2cnnn2)cc1)C1CC(C)(C)N(C)C(C)(C)C1	-7
CN(C)S(=O)(=O)N(Cc1ccc(C(C)(C)C)cc1)c1ccccc1	-3
OC(C#CCC(O)c1ccccc1)c1ccccc1 (stereo not given)	-12
CCC(C(=O)Nc1cccc(Cl)c1)n1nc(-c2ccc(OC)cc2)ccc1=O (stereo not given)	-6
C=CCOC(=O)c1ccc2c(c1)C(=O)N(c1ccccc1)C2=O	-2
O=C(O)CCS(=O)(=O)Cc1ccccc1F	-12
CCOC(=O)CN1Cc2cccc(C(=O)O)c2C1=O	-10
O=c1c2ccccc2nc(-c2ccccc2)n1-c1cccc(O)c1	4

Looked up by compound from the list above (5):
SMILES	MbtI inh
CC1CC(=O)C2=C(O1)c1c(ccc3ncccc13)NC2c1ccc(Cl)cc1Cl (stereo not given)	-35
O=c1[nH]ncc(N2CCCC2)c1Cl	-1
CCc1ncc(C(O)c2ccccc2)n1C (stereo not given)	-10
O=c1c2ccccc2nc(-c2ccccc2)n1-c1cccc(O)c1	4
O=C(Cc1ccccn1)NCCO	-2
